High-throughput results as filed in PubChem.
Mtb growth: Mycobacterium tuberculosis H37Rv growth inhibition, cell based, confirmatory dose response (AID 1949); most inactive calls were filed without a number and no value below 0 was filed; inhibition, % at 10 µg/mL, or IC50 in µg/mL where a hit was titrated; actives 1.6% (n = 100,000);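 active = confirmed in a dose series; inconclusive = about 50% or more but not retested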;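 also: bacteria grown 7 days with compound before Alamar blue readout; 0% = untreated bacteria and 100% = reference antibiotic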
* marks the source's active call; other numbers are inactive results; i = inactive; ? = inconclusive. An excerpt; the hit share may differ from the screen's.

compound	Mtb growth
Cc1ccc2nc(-c3ccccc3)c(CC(=O)O)c(C(=O)O)c2c1	i
COCCNCCOc1ccc(Br)cc1C	i
Cn1cnc2c(sc3nc4c(cc32)COC(C)(C)C4)c1=O	i
CC(=O)Nc1ccccc1Sc1ncnc2sc3c(c12)CCCC3	11%
CC(Sc1nc(-c2ccccc2)nc2ccccc12)C(=O)Nc1ccccc1C(F)(F)F (centres undefined)	i
CCCc1[nH]nc2c1C(c1ccc(OC(=O)N3CCOCC3)c(OCC)c1)C(C#N)=C(N)O2 (centres undefined)	i
CCC(C)C(=O)Nc1cc(Cl)ccc1OC (centres undefined)	i
O=C(CSCc1ccccc1)Nc1ccc(-c2nnc(-c3ccco3)o2)cc1	i
CCC(C)(C)NC(=O)Cc1ccc(C)cc1	7%
Cn1c(=O)c2[nH]c(N3CCC(Cc4ccccc4)CC3)nc2n(C)c1=O	i
CCOc1cccc(C(=O)N2CCN(c3ccc([N+](=O)[O-])c(N4CCOCC4)c3)CC2)c1	i
COc1cccc(CN2CCN(C(=O)Nc3ccc(F)cc3F)CC2)c1	i

Remaining list, next part.
compound	Mtb growth
O=C(NC(=S)NCc1cccnc1)c1ccc(-c2cccc(Cl)c2Cl)o1	i
C=CCNC(=S)NNC(=S)Nc1ccc(F)cc1F	i
O=c1oc2cc(O)ccc2cc1-c1nnc(NCc2ccccc2)s1	i
COC(=O)c1ccccc1NC(=O)COc1ccc(C=O)cc1	i
CCn1c(SCC(=O)Nc2ccc(Cl)c(Br)c2)nnc1-c1ccccc1	i
CC(=O)Nc1ccc(NC(=S)Nc2ccc(Cl)cc2Cl)cc1	i
CCC(CC)C(=O)Nc1c(C)n(C)n(-c2ccccc2)c1=O	i
CCOc1ccc(C(=O)Nc2ccc(OC)cc2OC)cc1[N+](=O)[O-]	i
COc1ccc(C(=O)N2CCC(C(=O)Nc3ccc(Cl)cc3Cl)CC2)cc1	i
COCc1cc(C)nc2sc(C(=O)N3CCOCC3)c(N)c12	2%
CC(C)C(=O)Nc1ccc(C(=O)NC(c2ccccc2)c2ccccc2)cc1	i
O=c1c2ccccc2[nH]c(=S)n1CCCN1CCC(Cc2ccccc2)CC1	18%

The results go on.
compound	Mtb growth
COc1ccc(NC(=O)C(=O)NC2CCCCCCCCCCC2)c(OC)c1	i
O=[N+]([O-])c1cc(Cl)ccc1N1CCCC1	i
CC(C)(C)NS(=O)(=O)c1ccc(NC(=O)NC2CCCCC2)cc1	i
O=C(CC1C(=O)NCCN1C(=O)C1CCCCC1)OCc1ccccc1 (centres undefined)	i
COc1ccc(N2C(=O)CC(N3CCN(C(=O)c4ccco4)CC3)C2=O)cc1 (centres undefined)	i
O=c1c2cc(I)ccc2nc(/C=C/c2cccnc2)n1-c1cccc([N+](=O)[O-])c1	3%
CCOc1ccccc1NC(=O)c1c(NC(=O)CNCc2ccco2)sc2c1CCC2	i
O=C(CN(c1ccc2c(c1)OCCO2)S(=O)(=O)c1ccccc1)NCc1ccccn1	i
S=C(Nc1ccccc1Oc1ccccc1)NC1CCCC1	8%
COc1ccc2[nH]cc(CCNC(=O)NC34CC5CC(CC(C5)C3)C4)c2c1	i
COc1cccc(C=O)c1OC(=O)c1cccs1	i
Cc1nc(NC(=O)COc2ccc(-c3ccccc3)cc2Br)sc1C	1%

Structures shown so far with bromine:
compound	Mtb growth
COCCNCCOc1ccc(Br)cc1C	i
CCn1c(SCC(=O)Nc2ccc(Cl)c(Br)c2)nnc1-c1ccccc1	i
Cc1nc(NC(=O)COc2ccc(-c3ccccc3)cc2Br)sc1C	1%

(listing goes on)
compound	Mtb growth
CCCCOC(=O)Nc1cccc(F)c1	3%
Nc1cc(=O)[nH]c(SCC(=O)Nc2ccccn2)n1	i
O=C(O)c1ccc(F)c(S(=O)(=O)N2CCOCC2)c1	i
CCNC(=O)N1c2ccc(OCC)cc2C(C)=CC1(C)C	i
CCN1CCN(CCCOc2ccc(C)cc2Cl)CC1	i
CCC(=O)Nc1c(-c2ccccc2)nc2ccccn12	i
CCn1ncc(NC(=S)NCCCOC)c1C(N)=O	i
CCOCC(=O)Nc1cc(C(=O)OC)ccc1C(=O)OC	?
CCOc1ccccc1NC(=O)c1ccc(OCC(=O)Nc2ccccc2CC)cc1	i
CCOc1ccc(NC(=O)N(c2ccccc2)c2ccccc2)cc1	1%
COc1c(C)cc(NC(=O)c2cccc(I)c2)cc1C	46%
Cc1ccccc1/C(N)=N/OC(=O)c1ccc(F)cc1	i

Going on with the list.
compound	Mtb growth
CC(=O)N1CCN(c2ccc([N+](=O)[O-])c(-n3nc(-c4ccccc4)c4ccccc4c3=O)c2)CC1	i
COc1ccccc1OCCCC(=O)Nc1cccc(F)c1	i
CC(=O)Nc1c(O)nc(SCC(=O)Nc2sc3c(c2C#N)CCCCCC3)[nH]c1=O	i
COc1ccc(C(=O)NCC(C)NC(=O)c2ccc(OC)c(OC)c2)cc1OC (centres undefined)	i
C=CCn1c(Cc2ccccc2)nnc1SCC(=O)Nc1nc(-c2ccccc2)cs1	i
CS(=O)(=O)N(CC(=O)NCCSC1CCCCC1)c1ccc2c(c1)OCO2	i
O=C(CSCc1c(Cl)cccc1Cl)N1CCN(c2ccccc2F)CC1	2%
Cc1ccccc1N(Cc1ccc(Cl)cc1Cl)S(C)(=O)=O	i
Cc1ccc(C(=O)NC(=S)Nc2cc(C(=O)O)ccc2C)cc1	i
N#CCc1ccc(NC(=O)CCSc2ccc(Cl)cc2)cc1	i
Cc1ccc(S(=O)(=O)Nc2ccc(Oc3cccc(C)c3)cc2)cc1	5%
O=C(COc1ccc(Cl)cc1Cl)Nc1ccc(N2CCCC2)c(Cl)c1	i

Next section
compound	Mtb growth
Cc1cc(C)c(OCC(=O)Nc2ccc(Br)cc2F)c(Cl)c1	i
CCOc1cccc(OCCCNC(C)C)c1	i
Nn1c(SCC(=O)NC23CC4CC(CC(C4)C2)C3)nnc1-c1ccc(Cl)cc1Cl	i
CC(C)(C)S(=O)(=O)c1sc(C=O)cc1C=O	i
Cc1cccc(NC(=O)c2ccc(NC3CCCCC3)c([N+](=O)[O-])c2)c1	i
CCOC(=O)c1ccc(-n2cc3c(c2-c2ccc(OC)cc2)c(=O)n(C)c(=O)n3C)cc1	0%
COc1ccc(S(=O)(=O)Nc2cc3oc4ccccc4c3cc2OC)cc1	37%
COc1ccc(C(=O)CSc2nnc(-c3ccccn3)n2C)cc1	i
Cc1ccc(-c2nn(CCC(=O)NCc3cccnc3)c(=O)c3ccccc23)cc1	i
CC(C)(C)c1ccc(C(=O)Nc2c(F)cccc2F)cc1	i
O=C(Nc1ccc(Cl)cc1Cl)NC(Cc1ccc(O)cc1)C(=O)O (centres undefined)	i
O=C(Nc1ccccc1F)c1c(F)c(F)c(F)c(F)c1F	i

Looked up above:
`COc1ccc(S(=O)(=O)Nc2cc3oc4ccccc4c3cc2OC)cc1` in Mtb growth is listed with 37%
`CCOC(=O)c1ccc(-n2cc3c(c2-c2ccc(OC)cc2)c(=O)n(C)c(=O)n3C)cc1` in Mtb growth is listed with 0%

(more compounds)
compound	Mtb growth
CCCOc1ccc(-c2csc3nc[nH]c(=O)c23)cc1	0%
CCCCC(CC)C(=O)N1CCN(c2cccc(C)c2C)CC1 (centres undefined)	5%
CN(C)CCCn1c(N)c(-c2nc3ccccc3[nH]2)c2nc(C#N)c(C#N)nc21	7%
CCCCNCCCOc1c(C)cccc1C(C)(C)C	19%
Cc1cc(NS(=O)(=O)c2ccc(NC(=O)NC3CCCCC3)cc2)no1	i
CC1CN(C(=O)COc2ccc3ccccc3c2Br)CC(C)O1 (centres undefined)	2%
COc1ccc(C(=O)CN(CC(=O)c2ccc(OC)cc2)c2ccc(OC)cc2)cc1	i
CCO/C=N/c1c(C#N)c2c(c(=S)n1C)COC(C)(C)C2	i
N#CCCn1cc(C(=O)n2nnc3ccccc32)c(-c2cccs2)n1	3%
O=C(c1ccc(S(=O)(=O)NCC2CCCO2)cc1)N1CCN(c2cccc(Cl)c2)CC1 (centres undefined)	3%
O=C(Nc1ccccc1Cl)c1cn(-c2ccccc2)nc1-c1cccc(Cl)c1	9%
CCOc1ccccc1N1CCN(C(=O)c2ccc(F)cc2)CC1	i

The results go on.
SMILES | Mtb growth
NC(=O)c1ccsc1NC(=O)COc1ccccc1 | i
CCOC(=O)c1cc2c(ccc3ccccc32)o1 | i
CCc1ccc(N2C(=O)CC(Sc3ccccn3)C2=O)cc1 (centres undefined) | i
COc1ccc(OC)c(NC(=O)CN(c2cccc(Br)c2)S(C)(=O)=O)c1 | 4%
O=C(O)c1ccc2c(c1)C(=O)N(CCc1ccccc1)C2=O | 0%
NC(=O)Cc1nnc(-c2ccccc2)c(-c2ccccc2)n1 | 3%
CCn1c(SCc2ccc(F)cc2)nc2scc(-c3ccccc3)c2c1=O | 43%
CCN(CC)S(=O)(=O)c1ccc(NC(=O)c2ccc(SC)cc2OC)cc1 | i
CC(=O)Oc1ccc(N(C(C)=O)S(=O)(=O)c2ccc(F)cc2C)c2ccccc12 | i
Cn1c(=O)c2c(n(C)c1=O)n(Cc1ccc(Cl)cc1Cl)c(=O)n2Cc1ccccc1Cl | i
COc1ccc(NS(=O)(=O)c2c(F)cccc2F)cc1 | i
Cc1csc(NC(=O)CSc2nnc(N)s2)n1 | i
O=C1c2ccccc2C(=O)N1Cc1cccnc1 | i
O=C(COc1ccc(Cl)cc1)NCc1cccs1 | i
Fc1ccc(-n2c(-c3ccc4c(c3)OCO4)n[nH]c2=S)cc1Cl | i

Next entries
SMILES | Mtb growth
CC(C)N(Cc1nc(-c2ccccc2)no1)C(=O)CN1C(=O)c2ccccc2C1=O | i
c1ccc(CC2CCN(CCOCCOc3ccccc3)CC2)cc1 | 23%
O=C1CC(C(=O)Nc2ccc(F)cc2)SC(=Nc2ccccc2)N1 (centres undefined) | i
O=C(COc1ccc(S(=O)(=O)NC2CCCCC2)cc1)N1CCN(c2ccc(F)cc2)CC1 | i
Cc1cccc(-n2c(SCC(N)=O)nc3ccccc3c2=O)c1 | i
CCOc1ccc(C(=O)NCc2ccc(F)cc2)cc1OCC | 5%
COc1ccccc1N1CCN(C2CCN(Cc3ccccc3Br)CC2)CC1 | 4%
CCn1c(SCC(=O)Nc2sc3c(c2C#N)CCCC3)nnc1-c1ccc(OC)cc1 | i
CCOC(=O)CN1C(=O)C(O)(CC(=O)c2ccc(I)cc2)c2ccccc21 (centres undefined) | i
CN(C)C(=O)Oc1ccc2ccccc2c1Cl | i
CCOC(=O)c1c(NC(=O)c2c(-c3ccccc3)noc2C)sc(C(=O)N(C)C)c1C | i
CS(=O)(=O)N(CC(=O)NCCSCc1ccccc1Cl)c1ccccc1F | i
CCc1ccc(OCC(=O)Nc2ccccc2C(C)(C)C)cc1 | 2%
CCOC(=O)C1CCN(C(=O)c2ccc(C)cc2)CC1 | i
Cc1cccc(-n2ncc3c(NCc4cccs4)ncnc32)c1 | ?

Next part; the last 5 above are carried over.
SMILES | Mtb growth
CCOC(=O)c1c(NC(=O)c2c(-c3ccccc3)noc2C)sc(C(=O)N(C)C)c1C | i
CS(=O)(=O)N(CC(=O)NCCSCc1ccccc1Cl)c1ccccc1F | i
CCc1ccc(OCC(=O)Nc2ccccc2C(C)(C)C)cc1 | 2%
CCOC(=O)C1CCN(C(=O)c2ccc(C)cc2)CC1 | i
Cc1cccc(-n2ncc3c(NCc4cccs4)ncnc32)c1 | ?
CCCC(C)C(=O)Nc1ccc(S(=O)(=O)NC(C)(C)C)cc1 (centres undefined) | 0%
CS(=O)(=O)N(CC(=O)NCc1ccc(Cl)cc1)c1cccc(Br)c1 | i
Cc1ccc(C(=O)N2CCN(c3ccc(NC(=O)c4ccc(-c5cccc(Cl)c5)o4)cc3)CC2)cc1 | i
CCOc1cc(C(=S)N2CCN(CCO)CC2)ccc1O | i
CCc1ccc(OCc2ccc(C(=O)NC3CCCCC3)cc2)cc1 | i
CCC(=O)N(c1nc(-c2ccc(Cl)cc2)c(C)s1)c1ccc(C)cc1C | 7%
COC(=O)Nc1ccc(C)c([N+](=O)[O-])c1 | i
COc1ccc(S(=O)(=O)Nc2ccc3c(c2)OCO3)cc1C | i
c1ccc(-c2noc(CNC3CCCCC3)n2)cc1 | 1%
COCCn1c(C)cc(C(=O)CSc2nnc(-c3ccccc3)o2)c1C | i
Cc1cc(C(=O)NC2=NCCS2)sc1-c1ccccc1 | i
Nc1ccccc1C(=O)Nc1cccc2ccccc12 | i
COC(=O)c1ccc(NC(=O)CN(c2cc(C)ccc2OC)S(=O)(=O)c2ccccc2)cc1 | i
CCOc1ccc(OCc2ccc(C(=O)N3CCCC3)o2)cc1 | i
COc1ccc([N+](=O)[O-])cc1NC(=O)CN(c1ccc(F)cc1)S(=O)(=O)c1ccc2c(c1)OCCO2 | i

(list continues)
SMILES | Mtb growth
CCN(CC)C(=O)Cn1nc(-c2ccc(Cl)cc2)c2ccccc2c1=O | 1%
Cc1cc(C(=O)Nn2cnnc2)sc1-c1ccccc1 | 2%
COc1ccc(N(CC(=O)Nc2cccnc2)S(=O)(=O)c2ccc(C)cc2)cc1OC | i
COc1ccc(OC)c(NC(=O)NNC(=O)COc2ccc(F)cc2F)c1 | i
O=C(NNc1nc(-c2ccccc2)c2cc(Cl)ccc2n1)c1cccnc1 | i
COc1ccc(C2CC(=O)C3=C(C2)Nc2ccccc2NC3c2ccc(OCc3ccccc3)cc2)cc1 (centres undefined) | 5%
COc1ccc(CC(=O)Nc2ccc(S(=O)(=O)NCCc3ccccc3)cc2)cc1 | i
CCCOc1ccc(NC(=O)C(C)Oc2ccccc2)cc1 (centres undefined) | 24%
Cc1cc(C)n(Cc2cccc([N+](=O)[O-])c2)n1 | i
CCCCc1nnc(SCC(=O)Nc2ccc3c4c(cccc24)CC3)n1C | i
CSc1cccc(NC(=O)CNS(=O)(=O)c2ccc(F)cc2)c1 | i
CC1=CC(C)(C)N2C(=O)C(=O)c3cc(OC(=O)c4ccccc4)cc1c32 | i
